Vaccinia Venus = qHTS for Stage-Specific Inhibitors of Vaccinia Orthopoxvirus: Venus Reporter Primary qHTS. AID 720580, 2013. Potency, µM (series often up to 36.5 µM), inactives show at the top dose activity change, negative = inhibition, hits mostly inhibitors. 0.46% of 330,000 active. Vaccinia virus Venus reporter expression, fluorescence; active means well fitted inhibition curve with a large enough effect; inconclusive means small, poorly fitted or top-dose-only effect; inactive means no such curve, though single readings can be large or run the other way; tested in A549 cells; further: nearly all actives have a fitted effect of over 30% in size; inactives centre near -10
Vaccinia mCherry = qHTS for Stage-Specific Inhibitors of Vaccinia Orthopoxvirus: mCherry Reporter Primary qHTS; 0.63% of 310,000 active; AID 720579, 2013; Potency, µM (top dose mostly 36.5 µM), inactives show at the highest dose activity change, negative = inhibition, hits mostly inhibitors; Vaccinia virus mCherry reporter infection, fluorescence; about a quarter of the inactives have no number; active = well fitted inhibition curve with a large enough effect; inconclusive = small, poorly fitted or top-dose-only effect; inactive = no such curve, though single readings can be large or run the other way; tested in A549 cells; further: nearly all actives have a fitted effect of over 35% in size; inactives centre near -10
* hit, by the source's call; i = inactive; ? = inconclusive; · = not tested or not shown; & = joins results of further samples; [ ] = remark or other dose. On the % scale 0 is the no-effect control and ±100 the full control effect; potency means the concentration at half of the fitted maximal effect.

| mol | Vaccinia Venus | Vaccinia mCherry |
| --- | --- | --- |
| COc1ccc(CN2C(=O)c3ccccc3C2c2nnnn2C(C)C)cc1OC (configuration not stated) | 5% | 3% |
| CCN1CCN(Cc2c3ccccc3cc3ccccc23)CC1 | -25% | -5% |
| COc1ccc(CNC(=O)c2c(O)nc3cc(C)ccn3c2=O)cc1 | 11% | 8% |
| Cc1cc(C)nc(N2N=C(C(C)(C)C)CC2=O)n1 | -5% | -4% |
| CC(=O)c1cccc(N/C=C\c2nnnn2-c2ccc(F)cc2)c1 | -3% | i |
| Cc1ccc(C2NC(=O)c3n[nH]c(-c4cccs4)c32)cc1 (configuration not stated) | -7% | -18% |
| COc1ccc(NC(=O)CN(C)C(=O)Cc2n[nH]c(=O)c3ccccc23)cc1 | -10% | -6% |
| CC1(C)CC(=O)c2sc(NC(=O)CCS(=O)(=O)c3ccccc3)nc2C1 | ? | ? |
| CC1=C(C(=O)Nc2ccc(F)cc2)C(c2ccc(N(C)C)cc2)NC(=O)N1 (configuration not stated) | -9% | -10% |
| C=CCN1C(=O)CN=C1Nc1ccc(F)cc1 | -2% | -15% |
| O=C(/C=C/c1ccccc1)N1CCC(Cc2ccccc2)CC1 | -6% | -14% |
| O=C(NC1CCCc2ccccc21)c1ccccc1Br (configuration not stated) | -3% | -12% |
| CC1CCCCN1C(=O)COC(=O)C1CCN(S(=O)(=O)c2ccc3c(c2)OCCO3)CC1 (configuration not stated) | 4% | -9% |
| COC(=O)Cc1ccc(NC(=O)c2ccc(Br)o2)cc1 | -20% | -19%[1.46 µM] |
| CC1CC(C)CN(C(=O)c2ccc(S(=O)(=O)N3CCCC3)cc2)C1 (configuration not stated) | -20% | i |
| NC(=S)N/N=C/C=C/c1ccccc1 | 0.79µM* | 1µM* |
| O=S(=O)(NC1=NCCCCCC1)c1cccs1 | -7% | i |
| COc1ccc(NC(=O)Cn2c(=O)n(-c3ccccc3)c(=O)c3c4c(sc32)CCCC4)cc1 | 2% | -4% |
| O=C(COc1ccc(Cl)cc1)Nc1ccc2oc(-c3ccncc3)nc2c1 | -19% | -17% |
| CN(C)CCCNc1cc(N2CCN(C3CCCCC3)CC2)c2noc3c2c1C(=O)c1ccccc1-3 | 58%[activator] | i |
| O=S(=O)(c1ccccc1)N1N=C(c2cccs2)CC1c1cccc(O)c1 (configuration not stated) | -21% | -22% |
| CN(Cc1ccccc1)C(=O)Cn1c(=O)oc2cc(S(=O)(=O)N3CCCC3)ccc21 | -10% | ? |
| C=CCCN(Cc1ccccc1)S(=O)(=O)c1cc(Br)ccc1Br | -15%&-17% | -11%&-5% |
| Cc1ccc2[nH]c(=O)c(CN(Cc3cccs3)C(=S)NCC3CCCO3)cc2c1 (configuration not stated) | -6% | i |
| CCN(C(=S)Nc1cccnc1)c1ccccc1 | -5% | -4% |

Rewritten with values under each structure: part of the list above
Order of results – Vaccinia Venus, Vaccinia mCherry
> CC1CCCCN1C(=O)COC(=O)C1CCN(S(=O)(=O)c2ccc3c(c2)OCCO3)CC1 (configuration not stated)
→ 4%, -9%
> COC(=O)Cc1ccc(NC(=O)c2ccc(Br)o2)cc1
→ -20%, -19%[1.46 µM]
> CC1CC(C)CN(C(=O)c2ccc(S(=O)(=O)N3CCCC3)cc2)C1 (configuration not stated)
→ -20%, i
> NC(=S)N/N=C/C=C/c1ccccc1
→ 0.79µM*, 1µM*
> O=S(=O)(NC1=NCCCCCC1)c1cccs1
→ -7%, i
> COc1ccc(NC(=O)Cn2c(=O)n(-c3ccccc3)c(=O)c3c4c(sc32)CCCC4)cc1
→ 2%, -4%
> O=C(COc1ccc(Cl)cc1)Nc1ccc2oc(-c3ccncc3)nc2c1
→ -19%, -17%
> CN(C)CCCNc1cc(N2CCN(C3CCCCC3)CC2)c2noc3c2c1C(=O)c1ccccc1-3
→ 58%[activator], i
> O=S(=O)(c1ccccc1)N1N=C(c2cccs2)CC1c1cccc(O)c1 (configuration not stated)
→ -21%, -22%
> CN(Cc1ccccc1)C(=O)Cn1c(=O)oc2cc(S(=O)(=O)N3CCCC3)ccc21
→ -10%, ?
> C=CCCN(Cc1ccccc1)S(=O)(=O)c1cc(Br)ccc1Br
→ -15%&-17%, -11%&-5%
> Cc1ccc2[nH]c(=O)c(CN(Cc3cccs3)C(=S)NCC3CCCO3)cc2c1 (configuration not stated)
→ -6%, i
> CCN(C(=S)Nc1cccnc1)c1ccccc1
→ -5%, -4%

Carrying on:
| mol | Vaccinia Venus | Vaccinia mCherry |
| --- | --- | --- |
| Cc1ccc(N2C(=O)N(CC(=O)Nc3ccc(F)c(F)c3)C(=O)C2C)cc1 (configuration not stated) | -12% | i |
| CCOC(=O)c1ccc(NC(=O)CNC(=O)C23CC4CC(CC(C4)C2)C3)cc1 | -17% | -13% |
| COc1ccccc1Nc1nc(Cl)c(C=O)s1 | -9% | ? |
| O=C(Nc1cccc2ncccc12)c1cc([N+](=O)[O-])ccc1Cl | -12% | -14% |
| Cc1cccn2c(=O)c(/C=N/O)c(N3CCCCC3)nc12 | -1% | -10% |
| O=C(NNC(=O)c1cc2ccccc2cc1O)Nc1ccc(F)cc1F | -12% | i |
| Cc1ccc2c(COC(=O)c3ccccc3Br)cc(=O)oc2c1 | -6% | -3% |
| CCCn1c(COc2ccccc2)nc2ccccc21 | ? | -13% |
| O=C(COC(=O)CCC(=O)c1ccc(F)cc1)Nc1cccc(S(=O)(=O)N2CCOCC2)c1 | -15% | i |
| O=C(O)Cn1nnnc1SCC(=O)Nc1ccc(F)cc1F | -6% | -13% |
| CCc1ccc(C(=O)NNC(=O)c2c(CC)noc2C)cc1 | 5% | -14% |
| Cc1ccc(C)c(C(O)c2ncc(-c3ccc(Cl)cc3)[nH]2)c1 (configuration not stated) | -25% | -18% |
| COc1ccc(NC(=O)CCN2CCC(C)CC2)cc1 | -6% | -12% |
| Nc1nc2c(ncn2[C@@H]2O[C@H](CNCc3ccc4ncccc4c3)[C@@H](O)[C@H]2O)c(=O)[nH]1 | -8% | 0% |
| CCc1cccc(C)c1NC(=O)CCn1c(=O)c2cccn2c2ccccc21 | -9% | 0% |
| O=C(CCNC(=O)c1ccccc1Cl)Nc1ccccc1N1CCCC1 | -13% | -9% |
| CCOC(=O)CCCNC(=O)CSc1nc2ccc(OCC)cc2[nH]1 | 6% | 1% |
| O=C(COC(=O)CCc1nc2ccccc2c(=O)[nH]1)Nc1ccccc1 | 10% | -12% |
| Cc1ccc(NC(=O)C(=O)NCCCN2CCOCC2)c(C)c1 | -6% | -9% |
| CN1CC(=O)N(CC(=O)Nc2ccc(Cl)c(C(F)(F)F)c2)c2ccccc2C1=O | -3% | -2% |
| CCOc1ccc(NC(=O)CS(=O)CC(=O)N(CC(=O)NC(C)(C)C)C2CCCC2)cc1 (configuration not stated) | -8% | i |
| COc1ccc2[nH]c(C)c(CCNC(=S)Nc3ccccc3C)c2c1 | ? | ? |
| Cc1c(C2=CCN(S(=O)(=O)c3cccc(Cl)c3)CC2)c2ccccc2n1CC(=O)N1CCCC1 | 2% | -12% |
| Cc1ccc(C)c(S(=O)(=O)N(C)C2(C)CCS(=O)(=O)C2)c1 (configuration not stated) | -6% | -22% |
| O=[N+]([O-])c1cccc(/C=C2\CCc3cnn(C4CCS(=O)(=O)C4)c32)c1 (configuration not stated) | -22% | -9% |
| COc1cc2c(cc1OC)C(Cc1ccc(O)cc1)N(C)CC2 (configuration not stated) | -4% | -8% |
| COc1ccc([C@H]2C(C(=O)O)=C[C@@H](C(C)(C)C)N2S(=O)(=O)c2ccccc2)cc1 | 0% | -9% |
| CCCC(=O)Nc1ccccc1-c1nnn(CC(=O)Nc2ccc(OCC)cc2)n1 | -8% | -11% |
| O=C1c2ccccc2C(Nc2ccc(-c3nc4ccccc4[nH]3)cc2)N1Cc1ccco1 (configuration not stated) | ? | -12% |
| COc1cc(C(=O)COC(=O)c2ccc([N+](=O)[O-])o2)cc(OC)c1OC | -4% | i |
| O=C(Nc1ccc(S(=O)(=O)N2CCCC2)cc1)c1cccnc1Cl | -15% | -3% |
| O=C1NC(Cc2ccc(O)cc2)c2nc3ccc(Br)cc3c(=O)n2-c2cc3ccccc3cc21 (configuration not stated) | ? | ? |
| CCC(=O)NNc1cc(=O)c2c(=O)n(C)c(=O)n(C)c2[nH]1 | -17% | -20%[1.46 µM] |
| Cc1cc(F)ccc1-c1cc(C(=O)NCc2ccco2)[nH]n1 | -27% | 0% |
| CCn1c(CNC(=O)C23CC4CC(CC(C4)C2)C3)nnc1SCC(=O)Nc1ccc(C)cc1 | -18% | -6% |
| Cc1cc(F)ccc1S(=O)(=O)N(C(=O)c1ccncc1)c1ccc(OC(=O)c2ccncc2)cc1 | ? | i |
| O=c1c2c(nc3cc(-c4ccc(F)cc4)[nH]n13)CCCC2 | ? | · |
| Cc1ccc(NC(=O)Cn2cc(C(=O)C3CC3)c3ccccc32)cc1C | -6% | 0% |
| O=c1c2cn[nH]c2nc(SCc2c(F)cccc2F)n1-c1ccc(Cl)cc1 | -21%&-6% | -20%&-8% |
| COCc1c(CCl)cnc(C)c1O | -14% | -29% |
| CCOc1ccc(NC(=O)N(C2CCCC2)C2CCN(C(C)=O)CC2)cc1 | -16% | -7% |
| Cc1cc(NS(=O)(=O)c2ccc(NC(=O)c3ccc(Cl)nc3)cc2)nc(C)n1 | -16% | i |
| CC[C@H]1CN2CCC1C[C@@H]2[C@@H](O)c1ccnc2ccc(OC)cc12 (some centres not stated) | -28% | ? |
| CCN1CCN(c2ccc(S(=O)(=O)N3CCCCC3)cc2NC(=O)/C=C/c2ccc(F)cc2)CC1 | -29% | -10% |
| COc1ccc(Cc2nnc(NC(=O)Cn3cnc4c3c(=O)n(C)c(=O)n4C)s2)cc1 | -4% | i |
| COCCCN1C(=O)C(CC(=O)NCc2ccco2)CC(C(=O)N(C(C)C)C(C)C)=C1C (configuration not stated) | -12% | 10% |
| O=C(COC(=O)/C=C/c1cccc(Br)c1)NCc1ccco1 | -15% | i |
| CCC1CCCCN1CCCNC(=O)c1[nH]c2ccccc2c1Sc1ccc(Cl)cc1 (configuration not stated) | -22% | -11% |
| Cc1ccc2cc(CN(C(=O)c3ccncc3)C(C)C)c(=O)[nH]c2c1 | -3% | · |
| CCn1cc2nc(SCc3ccccc3)n(Cc3ccc(C)cc3)c(=O)c2n1 | 1% | -9% |

Further results
| mol | Vaccinia Venus | Vaccinia mCherry |
| --- | --- | --- |
| COCCNC(=S)N(C)[C@H]1C[C@H]2c3cc(-c4ccccc4)ccc3CCN2C(=O)[C@H]1[C@H](C)O | -15% | -6% |
| O=C(N/N=C/c1sc(N2CCOCC2)nc1-c1ccccc1)c1ccccc1O | ? | ? |
| Cc1ccc(NC(=O)C2CCN(S(=O)(=O)c3c(C)noc3C)CC2)c(C)c1 | -2% | -7% |
| CCOc1ccc(-c2nc(N)ncc2Oc2ccc(OC)cc2)c(O)c1 | -19% | ? |
| CC1=NNC(=O)C1C(c1ccc(F)cc1)C(C#N)C#N (configuration not stated) | -7% | · |
| Cc1cccc(OCC(O)Cn2c(N3CCCCC3)nc3c2c(=O)[nH]c(=O)n3C)c1 (configuration not stated) | -14% | -15% |
| Cc1cc(C)c2sc(NC(=O)c3ccc(S(=O)(=O)N4CCCC4)cc3)nc2c1 | -8% | -5% |
| Cc1cccc(NC(=O)Nc2nnc(N(C)C3CCCCC3)s2)c1C | -18% | -8% |
| O=[N+]([O-])c1cc(-c2nc(-c3ccccc3)no2)ccc1NCc1ccco1 | -8% | -6% |
| CCOC(=O)c1ccc(-[n+]2c(-c3ccccc3)cc(-c3ccccc3)cc2-c2ccccc2)cc1 | ? | i |
| COc1ccc([C@H]2C[C@@H](O)[C@H](n3cc(C4CC4)nn3)CN2Cc2cccs2)cc1 | -29% | i |
| c1ccc(CN2C3=NCCN3c3ccccc32)cc1 | 5% | i |
| CN(C)S(=O)(=O)c1cccc(NC(=O)CCc2c[nH]c3ccccc23)c1 | -13% | i |
| COc1ccc(-c2noc(-c3csc([C@@H]4O[C@H](CO)[C@H](O)[C@H](O)[C@H]4O)n3)n2)cc1OC | -1% | i |
| Cc1onc(-c2c(F)cccc2Cl)c1C(=O)NC(=S)NCc1cccnc1 | -3% | -18% |
| COc1ccc(-n2c(CC3C(=O)Nc4ccc(C)cc43)nc3ccccc3c2=O)cc1 (configuration not stated) | 0% | -9% |
| COC(=O)c1cn(NC(=O)c2cc(OC)cc(OC)c2)c(=O)c2ccccc12 | -11% | -12% |
| N#Cc1ccc(OC(=O)c2cc(-c3ccc(Cl)cc3)on2)cc1 | -6% | i |
| COc1cc2c(cc1OC)C(C)N(C(=O)Cn1ncc3c1-c1ccccc1OC3)CC2 (configuration not stated) | -4% | -14% |
| NCCCCCc1nnc(SCc2ccc(F)cc2)o1 | -8% | -12% |
| C=C1C=C(C)n2ncc(C(=O)Nc3ccccc3O)c2N1 | ? | -28% |
| CCN(c1ccc(NC(=O)COC(=O)c2ccc([N+](=O)[O-])o2)cc1)C(C)C | -12% | i |
| Cc1ccsc1C(=O)OCC(=O)NC1CCCCC1 | -9% | i |
| CCCCN1C(=O)C(CC(=O)NC(c2ccccc2)c2ccccc2)CC(C(=O)N(CC)CC)=C1C (configuration not stated) | -9% | i |
| OCCC1CN(C2CCC2)CCN1Cc1ccc(F)c(F)c1 (configuration not stated) | -12% | i |
| COc1cc(N)c(Cl)cc1NC(=O)c1ccccc1 | -8% | -11% |
| Cc1csc(NC(=O)CSc2nc3ccccc3c(=O)[nH]2)n1 | -8% | -7% |
